# KCNQ2 pot: KCNQ2 (rat) channel potentiation | O88943 | CHO-K1 KCNQ2, FluxOR thallium flux fluorescence; active compounds read high | B-score at 10 µM | 310,000 compounds, 0.54% hits | AID 2239;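 active means fluorescence ratio B-score at least 3 SD of library B-scores, with initial fluorescence B-score within 3 SD, cut at about 5.3 in these data; same plate scores as AID 2156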;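 further: B-score of peak minus minimum over baseline fluorescence ratio after K+ and Tl+ stimulus; positive B-score means potentiation of KCNQ2 with more thallium influx and brighter signal; only the inactives scoring about 0 or higher are listed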
# Target sequence (O88943 whole entry, looked up): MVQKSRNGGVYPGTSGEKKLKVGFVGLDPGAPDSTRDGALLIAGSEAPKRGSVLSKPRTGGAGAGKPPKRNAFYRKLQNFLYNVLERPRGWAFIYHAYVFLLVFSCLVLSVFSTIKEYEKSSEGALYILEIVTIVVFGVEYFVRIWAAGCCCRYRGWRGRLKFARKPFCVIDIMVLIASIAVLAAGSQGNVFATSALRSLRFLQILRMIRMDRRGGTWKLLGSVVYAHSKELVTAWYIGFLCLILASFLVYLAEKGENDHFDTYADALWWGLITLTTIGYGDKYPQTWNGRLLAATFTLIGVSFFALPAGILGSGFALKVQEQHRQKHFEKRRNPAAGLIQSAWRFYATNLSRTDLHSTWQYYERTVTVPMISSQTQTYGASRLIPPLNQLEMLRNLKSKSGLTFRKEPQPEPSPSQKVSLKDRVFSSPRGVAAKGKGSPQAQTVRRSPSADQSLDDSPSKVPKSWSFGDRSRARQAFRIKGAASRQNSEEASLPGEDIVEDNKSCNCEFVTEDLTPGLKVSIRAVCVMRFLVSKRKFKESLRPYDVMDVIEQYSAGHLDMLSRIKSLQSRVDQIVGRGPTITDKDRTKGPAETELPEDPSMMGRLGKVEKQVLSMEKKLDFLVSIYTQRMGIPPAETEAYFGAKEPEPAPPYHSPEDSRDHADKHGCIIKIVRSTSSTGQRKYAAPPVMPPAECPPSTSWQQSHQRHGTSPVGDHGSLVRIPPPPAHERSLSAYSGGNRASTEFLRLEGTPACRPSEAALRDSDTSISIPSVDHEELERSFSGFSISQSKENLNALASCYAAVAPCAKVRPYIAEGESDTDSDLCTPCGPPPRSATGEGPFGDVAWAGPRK
# KCNQ2 pot baseline: second read-out of KCNQ2 pot, no call of its own (marks repeat the call); B-score; compound at 10 µM; measured here: initial fluorescence intensity artifact check;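 brightness before thallium and not channel activity; 0 = typical well and far values either way flag optical interference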
# Numbers without * were called inactive. Not all compounds are listed (hit frequency here may not be typical).
item	KCNQ2 pot	KCNQ2 pot baseline	molecule
1	0.16	-1.36	COC(=O)Cc1ccc2oc(-c3cccnc3)nc2c1
2	1.98	0.81	COc1ccc(NC(=O)Nc2ccc3nonc3c2)cc1
3	0.45	0.5	Cn1c(SCc2ccccc2)nc2ccsc2c1=O
4	1.32	0.52	CSc1nsc(SCc2cnc(C)nc2N)n1
5	2.41	-1.06	CCOc1ccccc1-n1c(SCC(N)=O)nc2ccccc2c1=O
6	0.43	-3.1	S=C(Nc1ccccc1)N(Cc1ccccc1)Cc1ccncc1
7	2.2	1.08	CC(C)Cc1nnc(NC(=O)CCC(=O)N2CCC(C)CC2)s1
8	0.33	1.45	CNc1nc(N)c([N+](=O)[O-])c(NCc2ccccc2)n1
9	2.13	-1.52	O=C1CCCC/C1=C\Nc1ccc(S(=O)(=O)Nc2cnc3ccccc3n2)cc1
10	2.56	-0.42	CCCC(=O)C1=C(O)C(C(=O)OC)C(C)(C)CC1=NC (stereo not drawn)
11	1.6	-1.53	O=C(Nc1ccc2oc(-c3ccccc3)nc2c1)c1cccnc1
12	1.94	0.04	O=C(NCc1cccnc1)c1ccc(NC(=O)c2ccco2)cc1
13	0.72	0.21	CC(=O)C1=C(Nc2ccccc2)CC(C)(O)C(C(C)=O)C1c1ccccc1 (stereo not drawn)
14	0.12	0.86	CN(C)S(=O)(=O)c1ccc(C(=O)NCc2nnc(SCC(=O)N3CCCCCC3)o2)cc1
15	1.94	-0.7	CCCCCOc1ccc(NS(C)(=O)=O)cc1
16	0.85	0.04	CCOC(=O)c1ccc(NC(=O)C2CC(=O)N=C(N)S2)cc1 (stereo not drawn)
17	0.68	1.26	COc1cc(C#N)c(NC(=O)CN2CCC(C(N)=O)CC2)cc1OC
18	0.01	-0.56	CCN(CC)CCNc1ccc2nnc(CCNS(=O)(=O)c3ccc(C)cc3)n2n1
19	0.5	-0.06	CCN(CC)c1ccc([N+](=O)[O-])cc1C(=O)O
20	0.38	-0.45	Cc1ccc(C(=O)NNC(=O)c2ccncc2)cc1S(=O)(=O)N1CCOCC1
21	1.46	1.35	COCCNC(=O)Cn1nc(-c2ccc(C)cc2)c2ccccc2c1=O
22	2.82	-0.4	CCCOc1ccc([N+](=O)[O-])c(N)c1
23	1.3	0.04	CCOc1ccc(Nc2nc(N)nc(CSC(=S)N3CCOCC3)n2)cc1
24	0.41	-1.03	O=C(COc1ncnc2ccccc12)N1CCN(C(=O)c2ccco2)CC1
25	3.93	0.09	CCOC(=O)Cc1csc(SCC(=O)NC2CCCC(C)C2C)n1 (stereo not drawn)
26	1.91	-1.02	O=C(Nc1ccc(Oc2cccnc2)cc1)C1CCN(Cc2ccccc2)CC1
27	0.31	-0.34	O=C(COC(=O)CSc1ccc([N+](=O)[O-])cc1)NCCc1ccccc1
28	0.02	0.42	Cc1cc(Br)ccc1NC(=S)NC1CCCC1
29	0.07	-1.64	COc1ccccc1CN1CC(C(=O)NCCN(C)CCc2ccccc2)CCC1=O (stereo not drawn)
30	0.55	0.52	O=C(c1ccc(S(=O)(=O)Nc2ccccc2)cc1)N1CCCC1

# Record cards, from the list above.
# O=C1CCCC/C1=C\Nc1ccc(S(=O)(=O)Nc2cnc3ccccc3n2)cc1 across the screens: KCNQ2 pot = 2.13; KCNQ2 pot baseline = -1.52
# Cc1cc(Br)ccc1NC(=S)NC1CCCC1 across the screens: KCNQ2 pot = 0.02; KCNQ2 pot baseline = 0.42
# O=C(COC(=O)CSc1ccc([N+](=O)[O-])cc1)NCCc1ccccc1 across the screens: KCNQ2 pot = 0.31; KCNQ2 pot baseline = -0.34

# The listing continues.
item	KCNQ2 pot	KCNQ2 pot baseline	molecule
31	0.29	1.18	COC(=O)c1c(NC(=O)c2cccc([N+](=O)[O-])c2)sc(C(N)=O)c1C
32	0.65	1.54	N/C(=N\OC(=O)c1ccc(F)cc1)c1cccc([N+](=O)[O-])c1
33	2.55	-0.4	O=C1COc2ccc(S(=O)(=O)CCC(=O)N3CCN(c4cccc(C(F)(F)F)c4)CC3)cc2N1
34	0.05	-0.93	COc1ccc(N2CCN(S(=O)(=O)CCNC(=O)COc3ccccc3)CC2)cc1
35	0.17	0.98	O=C(CN1C(=O)NC2(CCCC2)C1=O)Nc1cccc(-c2nnc3n2CCCCC3)c1
36	1.71	0.25	Cc1cc(C)cc(N(C(=O)c2ccc(Br)o2)C2C=CS(=O)(=O)C2)c1 (stereo not drawn)
37	0.91	0.29	Cc1ccc(C(=O)COc2cccc(NC(=O)c3ccco3)c2)cc1
38	0.83	-0.81	CCOC(=O)N1CCN(S(=O)(=O)c2ccc3c(c2)SCC(=O)N3)CC1
39	0.8	-0.82	COc1ccc(-c2n[nH]c3c2CN(C(=O)c2ccccc2)CC3)cc1
40	1.47	0.61	Cc1ccccc1N1CC(C(=O)Nc2nnc(SCC(=O)Nc3nccs3)s2)CC1=O (stereo not drawn)
41	0.01	-0.17	Nc1ccccc1-c1nnc(SCc2ccccc2F)[nH]c1=O
42	2.43	-0.84	O=C1CCC(=O)N1c1ccccc1-c1ccccc1
43	0.58	0.01	Nc1cc(-c2ccc(Br)cc2)nn1Cc1ccccc1
44	0.55	-1.3	Cc1ccc(Nc2nc(N)nc(CN3CCN(Cc4ccc5c(c4)OCO5)CC3)n2)cc1
45	1.1	1.1	Cc1ccc(CCC(=O)Nc2ccccc2C(=O)O)o1
46	1.38	0.28	COc1ccc(C)cc1NC(=S)NN1CCN(C)CC1
47	1.06	-1.26	CN(C)c1ccc(/C=N/NC(=O)C2COc3ccccc3O2)o1 (stereo not drawn)
48	1.77	0.04	Cc1cccc(C(=O)NCC(=O)OCc2cc(=O)n3ccsc3n2)c1
49	1.05	0.76	N#CCCN(C(=O)COC(=O)c1ccc(CNS(=O)(=O)c2ccc(F)c(Cl)c2)cc1)c1ccc(F)cc1
50	0.41	0.07	Cc1cccc(-n2nc3c(c2NC(=O)c2ccco2)CS(=O)C3)c1C (stereo not drawn)
51	0.18	-0.42	C/C(NCc1ccccc1)=C(\C#N)C(=O)NCc1ccccc1
52	1.15	0.84	CCOc1cc(CN2CCCC(N3CCN(c4ccc(F)cc4)CC3)C2)ccc1OC (stereo not drawn)
53	0.46	-2.13	O=C(c1cc(Cl)cc(Cl)c1)N1CCN(c2cc(C(F)(F)F)nc3ccccc23)CC1
54	1.62	0.96	CC(=O)Nc1c2c(nn1-c1ccc(F)cc1)CSC2
55	0.14	-0.23	CCCn1c(SCC(=O)Nc2ccc(Cl)cn2)nnc1C1CC1
56	0.81	-0.41	CC(=O)NC(Cc1ccccc1C)C(=O)NC1CCN(C(=O)c2ccc(C)cc2)CC1 (stereo not drawn)
57	0.92	-1.66	O=C(CN1C(=O)COc2ccc(S(=O)(=O)N3CCOCC3)cc21)Nc1cccc(Cl)c1
58	1.74	-1.49	N#Cc1ccc(OCC(=O)NCCc2ccc(S(N)(=O)=O)cc2)cc1
59	2.02	-0.07	COc1ccc(N2CCN(S(=O)(=O)c3c(C)[nH]c(C)c3C(=O)N3CCCCC3)CC2)cc1
60	1.75	-3.13	COC(=O)C1(CCSC)NC(c2ccc(O)cc2)C2C(=O)N(c3ccc4c(c3)OCCO4)C(=O)C21 (stereo not drawn)
61	0.6	-1.74	CC(C)CN(C(=O)COC(=O)CNC(=O)c1sc2ccccc2c1Cl)C1CCS(=O)(=O)C1 (stereo not drawn)
62	0.68	0.85	O=C1CC(C(=O)Nc2ccccc2)S/C(=N\NC(=O)c2ccccc2Cl)N1 (stereo not drawn)
63	1.07	0.41	FC(F)(F)Sc1ccc(NC(=S)NCc2ccccc2)cc1
64	0.64	-0.59	CCn1cc(-c2cc(C(=O)O)on2)c(C)n1
65	0.62	-0.05	CC(=O)c1cc(C(=O)N2CCCC(CCC(=O)N(C)CCc3ccccn3)C2)cs1 (stereo not drawn)
66	0.02	0.15	CCCCN=C1NN=C(c2cccc([N+](=O)[O-])c2)CS1
67	2.07	0.64	CC(C)CNC(=O)c1cccc(NC(=O)CSc2ccccc2)c1
68	1.15	-1.97	O=C(Nc1nnc(-c2ccc(F)cc2)o1)c1ccco1
69	1.21	2.27	CCOC(=O)C1=C(C)N=c2s/c(=C\c3cccn3C)c(=O)n2C1c1cccc(OC)c1OC (stereo not drawn)
70	1.07	2.05	O=C(Nc1ccc(N2CCOCC2)cc1)C1CC(O)CN1S(=O)(=O)c1ccc(Cl)cc1 (stereo not drawn)
71	0.68	0.98	COCCN1CCN(c2c(C)c(C)nc3cc(-c4cccc(OC)c4)nn23)CC1
72	0.87	-1.14	Cc1ccc(C(NC(=O)N2CC(C)OC(C)C2)C(Cl)Cl)cc1F (stereo not drawn)
73	1.21	-1.88	COc1cccc(N2C(=O)C(CC(=O)Nc3ccc(F)cc3)N(C3CCCCC3)C2=O)c1 (stereo not drawn)
74	1.5	-1.97	CCCCCn1ccc(=O)c2c(C(F)(F)F)nccc21
75	1.96	-0.12	O=C(Nc1nnc(-c2ccccc2)o1)NC1CCCCC1
76	1.27	-1.2	CSc1ccccc1C(=O)NC1CC2CCC1C2 (stereo not drawn)
77	0.05	2.42	Cc1cc(/C=C2\C(=O)NN(c3ccccc3)C2=O)c(C)n1-c1ccccc1O
78	2.61	-0.45	CCN1CCN(C(c2ccc(C(F)(F)F)cc2)c2ccc3cccnc3c2O)CC1 (stereo not drawn)
79	0.67	-3.36	CC[C@H](C)[C@H](NC(N)=O)C(=O)Nc1ccc2c(c1)OCO2
80	0.17	-1.47	C/C=C/C(=O)OCC(=O)Nc1cc([N+](=O)[O-])ccc1Cl
81	1.23	-0.03	CS(=O)(=O)c1ccc2nc(NC(=O)c3cccc([N+](=O)[O-])c3)sc2c1
82	0.79	0.41	COc1ccc(S(=O)(=O)Nc2ccc(F)c(F)c2)cc1Cl
83	2.11	-2.81	COc1cc(/C=C2\C(=N)N3N=C(S(C)(=O)=O)SC3=NC2=O)ccc1OS(=O)(=O)c1ccc(C)cc1
84	0.04	0.03	Cc1ccccc1C(=O)NNC(=S)NC(=O)c1cccnc1
85	0.1	-0.98	COc1ccc(C2(C)NC(=O)N(CC(=O)NCCC3=CCCCC3)C2=O)cc1OC (stereo not drawn)
86	0.89	2.23	O=C(O)C1C2C=CC3(O2)C1C(=O)N1c2ccccc2COC13 (stereo not drawn)
87	0.64	0.13	Cc1cccc(CS(=O)(=O)Cc2ccc(C(=O)NC(C)c3ccccc3)o2)c1 (stereo not drawn)
88	0.07	1.21	O=C(Nc1ccc2c(c1)OCO2)C1CCN(c2ccc(S(=O)(=O)N3CCOCC3)cc2)CC1
89	1.57	-0.21	O=C(CCCCCn1c(=S)[nH]c2ccc(N3CCOCC3)cc2c1=O)NCc1ccc2c(c1)OCO2
90	2.11	-1.18	CCCCNC(=O)c1onc(CSc2cccc(OC)c2)c1C(=O)O

# 6 compounds out of the list, ordered by length of the SMILES, descending.
item	KCNQ2 pot	KCNQ2 pot baseline	molecule
69	1.21	2.27	CCOC(=O)C1=C(C)N=c2s/c(=C\c3cccn3C)c(=O)n2C1c1cccc(OC)c1OC (stereo not drawn)
53	0.46	-2.13	O=C(c1cc(Cl)cc(Cl)c1)N1CCN(c2cc(C(F)(F)F)nc3ccccc23)CC1
44	0.55	-1.3	Cc1ccc(Nc2nc(N)nc(CN3CCN(Cc4ccc5c(c4)OCO5)CC3)n2)cc1
85	0.1	-0.98	COc1ccc(C2(C)NC(=O)N(CC(=O)NCCC3=CCCCC3)C2=O)cc1OC (stereo not drawn)
72	0.87	-1.14	Cc1ccc(C(NC(=O)N2CC(C)OC(C)C2)C(Cl)Cl)cc1F (stereo not drawn)
55	0.14	-0.23	CCCn1c(SCC(=O)Nc2ccc(Cl)cn2)nnc1C1CC1

# (continued)
item	KCNQ2 pot	KCNQ2 pot baseline	molecule
91	1.38	1.02	Cc1cccc(NC(=O)Nc2ccc(OCc3ccccc3)cc2)n1
92	0.73	-0.67	CC(=O)Nc1nc2ccc(S(=O)(=O)N3CCCC3)cc2s1
93	0.32	0.47	O=C(NCCO)c1ccc2c3n(nc2c1)-c1ccc(Cl)cc1CO3
94	0.58	-0.04	COc1ccc(CN2CC(C(=O)NCCN3CCOCC3)CC2=O)cc1 (stereo not drawn)
95	1.14	0.81	CN(C)S(=O)(=O)c1ccc(NC(=O)CN2CCN(c3ccccn3)CC2)cc1
96	0.89	-1.3	CC1(C)CC(=O)C(N=Nc2c(Cl)cc(Cl)cc2Cl)=C(O)C1
97	0.81	-1.79	N#Cc1cc(Oc2ccc(Cl)cc2)c(N2CCOCC2)cc1C#N
98	2.25	-1.71	Cc1occc1C(=O)NC(C)C12CC3CC(CC(C3)C1)C2 (stereo not drawn)
99	0.94	-1.12	CCCCn1c(N)c(N(CCOC)C(=O)COc2ccc(OCC)cc2)c(=O)[nH]c1=O
100	0.82	-0.37	COc1ccc(N2CCN(C(=O)CSc3nnc4c(C)cc5ccccc5n34)CC2)cc1
101	1.14	1.12	O=C(C1CCCN(Cc2ccc([N+](=O)[O-])cc2)C1)N1CCCCC1 (stereo not drawn)
102	0.22	0.98	COc1ccc(-c2nnc(NC(=O)c3ccc4c(c3)OCCO4)o2)cc1
103	0.03	-1.16	CCCCn1c(N)c(N(CCOC)C(=O)c2ccc(C)c(S(=O)(=O)N3CCOCC3)c2)c(=O)[nH]c1=O
104	1.85	-0.7	CSCCC(NC(N)=O)C(=O)Nc1cccc(S(=O)(=O)N2CCOCC2)c1 (stereo not drawn)
105	0.04	-0.02	CC(=O)NC(=S)Nc1ccccc1C(=O)Nc1ccccc1
106	0.47	-0.25	CC1(c2cccc(Br)c2)NC(=O)N(CC(=O)Nc2ccc(S(N)(=O)=O)cc2)C1=O (stereo not drawn)
107	0.06	0	CCOc1ccccc1NC(=O)c1nnn(CC(=O)Nc2ccc3c(c2)OCO3)c1N
108	1.21	0.01	O=C(O)c1ccc(Cl)c(S(=O)(=O)Nc2ccc(S(=O)(=O)Nc3cccc(Cl)c3)cc2)c1
109	0.74	-2.12	CCC(C)NC(=O)c1ccccc1NC(=O)CN1C(=O)c2ccccc2S1(=O)=O (stereo not drawn)
110	3.05	-0.43	Cc1occc1-c1nnc(SCC(=O)N2CCOCC2)n1CC(C)C
